Menin-MLL FL inh = displaces fluorescein MLL peptide from human menin; Fluorescence polarization, fluorescein-MLL peptide displacement from menin; FP activity change, % at 61.4 µM; 290,000 tested, under 10 active; inconclusive = falling polarisation curve, or a change in total fluorescence; inactive = total fluorescence flat and polarisation flat or rising; no compound was filed as active; the % refers to the polarisation; negative = inhibition;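 note: % of control where 0% means no effect; inhibitors lower the polarisation; unlabelled MLL peptide was the positive control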
gsp antag = antagonizes gsp, the McCune-Albright syndrome mutation; gsp-mutant cells, cAMP HTRF, 30 min; control for the full effect not named in the record; Potency, µM (highest dose often 76.9 µM), for the others: at the highest dose activity change, negative = inhibition, hits mostly inhibitors; actives 0.4% (n = 340,000); AID 624288; active = falling curve of any shape with a large fitted effect; inconclusive = falling curve, mostly with a smaller effect; inactive = flat or rising curve; cell line not stated here;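 note: intracellular cAMP measured with PDE inhibitor Ro 20-1724 present during compound exposure; potency is the fitted concentration of half-maximal effect; % is set by controls: 0 for no effect and ±100 for the full control effect; nearly all actives have a fitted effect of over 65% in size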
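Cells in G418 medium, seeded 16-24 h, 37C; buffer exchange to DPBS + 1 mM CaCl2, 0.5 mM MgCl2, 0.05% BSA; cpds in DMSO + […] (300 uM stock), 30 min 37C; HTRF cAMP detection.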
TRPML1 inh = human mucolipin-1 channel inhibition; activity change, negative = inhibition, % (no concentration beside the values); actives 0.02% (n = 390,000); Q9GZU1; AID 624415; TRPML1-inducible cells, Ca2+ dye fluorescence, FDSS; hits give low values; inhibition of EC80 agonist-evoked calcium signal; in the data active means activity change below about -50%; inconclusive means about -30% to -50%; inactive means above about -30%;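 note: stimulus is agonist 54-4 at its EC80 concentration; % is set by controls: 0 for no effect and ±100 for the full control effect; compound concentration not given in the record; the text of the record puts the active cut at -80%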
Target sequence (Q9GZU1 whole entry, looked up): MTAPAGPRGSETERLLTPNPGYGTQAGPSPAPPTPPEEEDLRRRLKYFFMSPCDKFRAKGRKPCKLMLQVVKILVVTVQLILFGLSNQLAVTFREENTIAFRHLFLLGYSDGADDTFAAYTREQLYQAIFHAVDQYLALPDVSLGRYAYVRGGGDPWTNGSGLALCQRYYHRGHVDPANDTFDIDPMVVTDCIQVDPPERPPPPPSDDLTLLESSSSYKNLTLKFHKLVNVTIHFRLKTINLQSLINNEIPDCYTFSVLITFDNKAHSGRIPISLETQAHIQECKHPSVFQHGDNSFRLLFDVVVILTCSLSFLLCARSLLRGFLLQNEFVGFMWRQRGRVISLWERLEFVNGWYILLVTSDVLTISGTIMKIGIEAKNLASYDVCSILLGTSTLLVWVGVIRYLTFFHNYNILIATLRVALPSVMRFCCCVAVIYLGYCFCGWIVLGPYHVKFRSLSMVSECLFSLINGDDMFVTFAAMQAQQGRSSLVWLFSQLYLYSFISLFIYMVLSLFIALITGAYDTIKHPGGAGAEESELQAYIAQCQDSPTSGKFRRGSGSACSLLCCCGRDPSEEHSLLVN
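Calcium fluorescence in TRPML1-DL cells induced overnight with Tet: a 110 s read after compound pin addition, then a 110 s antagonist read after challenge with 54-4 at 4 uM final (EC80).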
gsp ag = activates gsp, the McCune-Albright syndrome mutation; actives 0.13% (n = 340,000); gsp mutant cells, cAMP HTRF, 30 min; control for the full effect not named in the record; Potency, µM (titrated, usually from 76.9 µM), for the others: at the highest dose activation (cAMP increase), usual class: activators; AID 624287; active = well fitted activation curve with a large enough effect; inconclusive = small, poorly fitted or top-dose-only effect, or another doubt; inactive = no such curve, though single readings can be large or run the other way; cell line not stated here;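 note: phosphodiesterase inhibitor Ro 20-1724 added with compounds to block cAMP breakdown; potency is the fitted concentration of half-maximal effect; nearly all actives have a fitted effect of over 60% in size; about a fifth of the inactives were tested at one dose only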
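Cells in DMEM/10% FBS with G418 were pretreated with compounds in DMSO plus […] (300 uM stock) for 30 min at 37C. cAMP was measured by HTRF (cAMP-d2 plus anti-cAMP antibody-K) after 30 min at room temperature.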
ClpP mod = qHTS Assay for Activators of ClpP. purified B. subtilis ClpP, FRET peptide cleavage, 20 min. Potency, µM (top dose mostly 57.5 µM), without a hit: top-dose activity change, negative = active. actives 1.9% (n = 340,000); active = well fitted falling curve with a large enough effect; inconclusive = small, poorly fitted or top-dose-only effect; inactive = no such curve, though single readings can be large or run the other way; note: potency is the fitted concentration of half-maximal effect; the source files actives as falling curves though it sought activators and does not explain the sign; nearly all actives have a fitted effect of over 65% in size; many hits overshoot -100%
Target sequence (P80244 whole entry, looked up): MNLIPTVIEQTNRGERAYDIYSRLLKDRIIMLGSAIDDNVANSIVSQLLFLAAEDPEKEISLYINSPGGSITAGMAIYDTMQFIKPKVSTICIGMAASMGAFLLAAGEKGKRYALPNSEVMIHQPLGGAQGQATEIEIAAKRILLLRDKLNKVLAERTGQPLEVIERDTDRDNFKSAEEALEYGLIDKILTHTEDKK
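Purified B. subtilis ClpP, 10 microg/mL final in Tris/HCl pH8 with KCl, BSA, glycerol and Tween-20, cleaved an Abz/nitrotyrosine-quenched decapeptide. Fluorescence (ex 320, em 430) was read at 0 and 20 min at room temperature. Delta was normalized to 5.8 microM ADEP and DMSO/no-enzyme controls.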
TRPML1 agonist = activates the human TRPML1 channel; Q9GZU1; TRPML1-expressing cells, Ca2+ dye fluorescence, FDSS; host cell line not named in the record; reference of the full effect not given here; activation, % (concentration not given with the values); actives 0.12% (n = 410,000); in the data active = activation above about 50%; inconclusive = about 30% to 50%; inactive = below about 30%; note: 0% is about no effect; the text of the record puts the active cut at 80%
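Cells: TRPML1-DL, 1X Tet inducer, ~16 h at 37 degrees C/5% CO2. Dye: ABD Ca8 no-wash + quencher, 45-90 min RT. Read: 10 s baseline, compound add, 110 s agonist phase; 54-4 EC80 (4uM final), 110 s antagonist phase.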
* marks the source's active call; other numbers are inactive results; ? = inconclusive; nt = no result given; & = joins results of further samples; [ ] = another dose, or the depositor's remark.

SMILES	Menin-MLL FL inh	gsp antag	TRPML1 inh	gsp ag	ClpP mod	TRPML1 agonist
CC1=C(c2ccccc2)[N+](=O)C2(CCCC2)N1[O-]	-0.3	5%	-12	0%	-2.8%	-0.1
CC1=C(C)CC(C(=O)NCCc2ccccc2)C(C(=O)O)C1 (centres undefined)	0.0	-3%	18	20%	-2.7%	-0.3
COCCCNc1nc2c(-c3ccccc3)nnn2c2ccccc12	nt	nt	-10	nt	-8.8%	0.1
Cc1ccc(C(=O)OCC(=O)N2CCCc3ccccc32)cc1C	nt	-6%	-3	-5%	-1.7%	-0.6
CCCN(CC(=O)Nc1cc(Cl)ccc1Cl)C(=O)c1ccccn1	nt	16%	0	10%	1.3%	0.8
Cc1cccc(NC(=S)NNC(=O)CC(C)O)c1C (centres undefined)	1.8	4%	35	-40%[inhibitor]	-2.5%	1.4
O=C1N(CN2CCOCC2)c2ccccc2C12OCC(CCl)O2 (centres undefined)	-2.3	2%	nt	18%	0.6%	nt
O=C(O)CCNS(=O)(=O)c1ccccc1Br	1.7	17%	-4	3%	1.0%	0.2
O=C(NC1CCCCC1)C1CCCN(S(=O)(=O)c2cnc[nH]2)C1 (centres undefined)	0.1	9%	-1	3%	1.3%	0.3
CCOC(=O)N1CCC(NC(=S)Nc2ccc3nc(N4CCN(C)CC4)cc(C)c3c2)CC1	1.6	0%	21	3%[15.4 µM]	nt	-0.1
CCN(CC(=O)NC1CCS(=O)(=O)C1)c1ccc(S(C)(=O)=O)cc1[N+](=O)[O-] (centres undefined)	-0.1	-9%	32	-5%	-3.3%	1.1
Cc1ccc(-c2nc(COC(=O)C3=NN(c4ccccc4)C(=O)CC3)cs2)cc1	nt	-3%	12	?	0.4%	1.8
O=[N+]([O-])c1ccc(CSc2nnc(-c3cnccn3)o2)cc1	5.0	17%	-11	9%	-4.5%	0.4
COC(=O)c1sccc1NC(=O)c1cnc2cc(C)nn2c1C	4.7	6%	-15	-1%[15.4 µM]	nt	0.6
Cc1ccc(C(=O)Nc2ccc(C(=O)N/N=C/c3ccc(C)o3)cc2)cc1	2.1	-1%	12	16%[15.4 µM]	-1.2%	-1.0
CN(C)CCCN(C(=O)c1ccc(N2C(=O)CCC2=O)cc1)c1nc2c(F)cccc2s1	-1.7	5%	-2	12%[15.4 µM]	nt	-0.2
CCc1ccccc1NC(=O)Cn1cccc1C1=NC(c2ccccc2)CO1 (centres undefined)	3.3	-7%	13	-44%[inhibitor]	-8.8%	1.1
O=C(COc1coc(CN2CCc3ccccc32)cc1=O)N1CCCCC1	nt	-6%	1	-32%[15.4 µM]	nt	-0.7
O=C(CSc1nc2nn(-c3ccccc3)c(=O)c-2c2n1CCCCC2)NCCc1ccccc1	-2.8	-33%	-2	14%[15.4 µM]	nt	-0.3
CCCCOC(=O)C1=C(C)Nc2ncnn2C1c1ccc(OCC)c(OC)c1 (centres undefined)	1.8	1%	17	-9%	-1.2%	-0.5
Cc1nc2cccnc2nc1C	6.0	-2%	-4	-2%	0.8%	-0.8
O=C1CC(c2cccc(Cl)c2)Cc2nc(N3CCOCC3)ncc21 (centres undefined)	3.2	6%	-2	-1%	-19%	2.9
CN1CCN(C(=O)/C(=C\c2cccs2)NC(=O)c2ccccc2)CC1	-1.5	9%	-16	-3%[15.4 µM]	nt	-1.2
CN(CC(=O)Nc1ccc(OC(F)(F)F)cc1)C(=O)/C=C/c1cc2c(cc1[N+](=O)[O-])OCO2	nt	-20%	13	?	-3.8%	-0.1
CCn1c(C(=O)NC2CCC(C)CC2)cc2sccc21 (centres undefined)	1.6	-25%	71	14%	2.0%	0.9

(further entries)
SMILES	Menin-MLL FL inh	gsp antag	TRPML1 inh	gsp ag	ClpP mod	TRPML1 agonist
COc1ccc(S(=O)(=O)Nc2ccccc2Cl)cc1NC(C)=O	-12	-6%	-2	-21%	nt	-0.5
Cc1ccn2c(=O)c(NC(=O)c3ccc(Br)o3)c(C)nc2c1	nt	6%	9	8%[15.4 µM]	2.0%	0.4
COc1ccc(-c2[nH]ncc2CN2CCN(C3CCCCC3)C(=O)C2)cc1F	2.2	-8%	2	-21%	nt	-0.6
Cc1cc(=O)[nH]c(NN=Cc2c(Cl)cccc2Cl)n1	nt	-10%	-5	-42%[inhibitor]	-1.0%	0.3
COc1cccc(-c2cc3nc(C)c(C)c(N4CCN(C(=O)c5ccoc5)CC4)n3n2)c1	nt	nt	-1	-16%	-24%	-0.3
COc1cccc(/C=N/n2nnnc2N)c1	-1.2	6%	-5	6%	-28%	0.8
COc1ccc2c(C)cc(=O)oc2c1	-1.5	-3%	13	nt	3.7%	-0.3
Cn1ncc2c(NCc3ccc(Cl)cc3)ncnc21	nt	nt	4	nt	0.8%	0.2
CCOC(=O)c1[nH]c2ccccc2c1NC(=O)c1ccc(S(=O)(=O)N2CCOCC2)cc1	1.2	-9%	15	-41%[inhibitor]	2.2%	-0.6
Cc1ccc(Cc2cc(C)n[nH]c2=O)cc1	1.4	14%	8	0%[15.4 µM]	-2.9%	-0.8
CCN1CCN(C2=C(NS(=O)(=O)c3ccc(C)cc3)C(=O)c3ccccc3C2=O)CC1	nt	3%	26	?	2.2%	-0.5
Cc1ccc(C)c(CSc2c(C(C)C)cnc3c2c(=O)n(C)c(=O)n3C)c1	nt	nt	-30	nt	-9.3%	-0.2
CN1CCCC1CCOC(C)(c1ccccc1)c1ccc(Cl)cc1 (centres undefined)	5.1	35%[activator]	33	nt	-3.5%	1.2
COc1ccc(CN2CCN(C(=O)c3ccco3)CC2)cc1	0.5	0%	31	?	?	1.2
CCOC(=O)c1c(C)[nH]c(C)c1C(=O)COC(=O)c1ccc(Cl)c(S(=O)(=O)NCc2ccccc2)c1	1.0	?	5	?	-0.4%	1.9
CC(C)(C)C(=O)NC(=O)Nc1ccccc1C(F)(F)F	-2.1	4%	-3	7%[15.4 µM]	-2.3%	0.7
CC(C)C(=O)NNc1ccccc1	3.1	-11%	-2	6%	-1.7%	0.1
COc1cccc(CN(C)CC(=O)Nc2sc3c(c2C#N)CCC3)c1	7.5	-20%	6	7%[15.4 µM]	nt	1.2
CN(C(=O)Cn1cc(C(F)(F)F)cc(Cl)c1=O)C1CCS(=O)(=O)C1 (centres undefined)	nt	13%	4	-46%[inhibitor]	-1.7%	-0.8
O=C(NC1(C(F)(F)F)NC(=O)N(CCc2ccccc2)C1=O)c1ccc(Cl)cc1 (centres undefined)	nt	nt	-3	nt	-2.4%	0.2
COc1ccc(C(CC(=O)c2ccccc2)CC(=O)c2ccccc2)cc1	2.6	-10%	36	20%	nt	0.0
CCCn1c(SCC(=O)c2cc(C)n(-c3cc(C)on3)c2C)n[nH]c1=O	nt	-12%	-12	0%	-1.4%	0.5
CC(C)(C)NC(=O)[C@]1(C)CCC[C@@]2(C)C3CC[C@@]4(C)C[C@]3(CCC21)CC4=O (some centres undefined)	nt	-10%	0	0%	-1.5%	0.9
COC(=O)C(C)Sc1nc2c([nH]c3ccccc32)c(=O)n1C (centres undefined)	1.0	7%	-18	?	-7.3%	3.3
NC(=O)C1CN(C(=O)c2nn(Cc3ccccc3)c(=O)c3ccccc23)c2ccccc2O1 (centres undefined)	nt	-6%	9	-21%	-0.9%	-0.7

(list continues)
SMILES	Menin-MLL FL inh	gsp antag	TRPML1 inh	gsp ag	ClpP mod	TRPML1 agonist
Cc1ccc(C2C(=O)N(C3CCC(C)CC3)CC(=O)N2C2CCCC2)cc1 (centres undefined)	1.2	1%	6&1	-1%	-0.2%&0.3%	0.2&-0.1
CC(Oc1cc2oc(=O)c3c(c2cc1Cl)CCC3)C(=O)NCc1ccccn1 (centres undefined)	0.9	-8%	-10	8%	-20%	1.4
COc1ccc(NC(=O)CN2C(=O)CC(c3ccco3)Sc3ccccc32)cc1OC (centres undefined)	nt	nt	48	nt	1.4%	1.9
CN(C)/C=C(/C(=O)c1ccc(Cl)c(Cl)c1)S(C)(=O)=O	-2.9	10%	-12	-2%	nt	-0.7
CCCCOc1ccc(C(=O)N2CCN(CCc3ccncc3)CC2)cc1	nt	nt	-2	nt	0.7%	-0.8
CCN(CC(=O)Nc1c(F)cccc1F)C(=O)Cc1ccc(S(=O)(=O)N2CCOCC2)s1	nt	-6%	10	?	?	-0.7
CCOc1ccccc1Cn1c(=O)sc2ccccc21	-0.2	?	23	-3%[15.4 µM]	nt	6.5
CCN1C(=O)C(CC(=O)Nc2ccc(F)cc2)N(Cc2ccc3c(c2)OCO3)C1=S (centres undefined)	4.7	-5%	16	-19%[15.4 µM]	-0.5%	3.7
Cc1noc(C)c1COc1ccc(C(=O)N2CC(C)CC(C)C2)cc1 (centres undefined)	nt	7%	19	18%	1.5%	-0.5
CC1C/C(=N\NC(=O)c2cccnc2)CC(C)(C)C1 (centres undefined)	0.2	4%	-11	1%[15.4 µM]	-0.5%	-0.4
CC(C)(C)c1ccc(-n2ncc3c2CCCC3NC(=O)CN2CCCCC2=O)cc1 (centres undefined)	2.8	-11%	9	-8%	-1.0%	-0.5
CCOC(=O)c1ccc(NC(=O)CN2C(=O)C3C4C=CC(C4)C3C2=O)cc1 (centres undefined)	3.1	-7%	-16	24%	0.3%	0.5
CC1(C)Cc2c(sc3c2C2=NCCN2C=N3)CS1	-0.1	16%	-25	?	-3.2%	3.1
COc1ccc(C(=O)NCCCOc2cccnc2)cc1OC1CCN(C(C)=O)CC1	nt	-2%	-9	-2%	-0.1%	-0.5
O=C(CSc1nc2ccccc2c(=O)n1-c1ccccc1F)N1CCOCC1	nt	-4%	-20	-37%[inhibitor]	-2.1%	2.1
Cc1ccc(S(=O)(=O)N(C)c2ccc(OC(=O)COc3ccccc3)cc2)cc1	nt	6%	1	5%	-2.7%	2.8
CC(C)(C)c1ccc(C(=O)N2CCN(CCNC(=O)C(=O)Nc3ccc(F)cc3)CC2)cc1	1.3	-10%	9	8%	1.6%	0.6
CC(OC(=O)C1CC1C)C(=O)Nc1ccc(Cl)cn1 (centres undefined)	nt	7%	-13	-8%[15.4 µM]	?	-0.3
CC(=O)Nc1ccc(NS(=O)(=O)c2ccc(C)cc2)c([N+](=O)[O-])c1	0.5	nt	-9	15%[15.4 µM]	nt	0.2
CCOC(=O)c1ccccc1NC(=O)c1sc2ccccc2c1Cl	nt	nt	-5	nt	-15%	0.0
O=C(CN1C(=O)NC2(CCOc3ccccc32)C1=O)c1cccs1 (centres undefined)	nt	10%	-10	0%	nt	1.1

Reformatted field by field: entries from further up
CCN1C(=O)C(CC(=O)Nc2ccc(F)cc2)N(Cc2ccc3c(c2)OCO3)C1=S (centres undefined)
  Menin-MLL FL inh: 4.7 | gsp antag: -5% | TRPML1 inh: 16 | gsp ag: -19%[15.4 µM] | ClpP mod: -0.5% | TRPML1 agonist: 3.7
Cc1noc(C)c1COc1ccc(C(=O)N2CC(C)CC(C)C2)cc1 (centres undefined)
  Menin-MLL FL inh: nt | gsp antag: 7% | TRPML1 inh: 19 | gsp ag: 18% | ClpP mod: 1.5% | TRPML1 agonist: -0.5
